# Source: PubChem
# Arbovirus inh: antivirals against arbovirus infection; arbovirus infection cell-based antiviral screen; inhibition, % at 10 µM; 200,000 tested, 0.37% active; AID 1251;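 active means inhibition from about 30%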;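 further: bluetongue infection of BSR cells; cell survival read as ATP light after 72 h; 0% = infected wells without compound and 100% = uninfected wells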
# RecA intein inh: blocks M. tuberculosis RecA intein splicing | P9WHJ3 | cell-free RecA intein splicing, fluorescence | inhibition, %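 (about 9 µM by stock and volumes)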 | 290,000 tested, 0.75% active | AID 2221; in the data active means inhibition above about 30%; inconclusive means no clear call, values can overlap the other calls;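 further: 0% = vehicle wells and 100% = reference inhibitor control wells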
# Target sequence (P9WHJ3 whole entry, looked up): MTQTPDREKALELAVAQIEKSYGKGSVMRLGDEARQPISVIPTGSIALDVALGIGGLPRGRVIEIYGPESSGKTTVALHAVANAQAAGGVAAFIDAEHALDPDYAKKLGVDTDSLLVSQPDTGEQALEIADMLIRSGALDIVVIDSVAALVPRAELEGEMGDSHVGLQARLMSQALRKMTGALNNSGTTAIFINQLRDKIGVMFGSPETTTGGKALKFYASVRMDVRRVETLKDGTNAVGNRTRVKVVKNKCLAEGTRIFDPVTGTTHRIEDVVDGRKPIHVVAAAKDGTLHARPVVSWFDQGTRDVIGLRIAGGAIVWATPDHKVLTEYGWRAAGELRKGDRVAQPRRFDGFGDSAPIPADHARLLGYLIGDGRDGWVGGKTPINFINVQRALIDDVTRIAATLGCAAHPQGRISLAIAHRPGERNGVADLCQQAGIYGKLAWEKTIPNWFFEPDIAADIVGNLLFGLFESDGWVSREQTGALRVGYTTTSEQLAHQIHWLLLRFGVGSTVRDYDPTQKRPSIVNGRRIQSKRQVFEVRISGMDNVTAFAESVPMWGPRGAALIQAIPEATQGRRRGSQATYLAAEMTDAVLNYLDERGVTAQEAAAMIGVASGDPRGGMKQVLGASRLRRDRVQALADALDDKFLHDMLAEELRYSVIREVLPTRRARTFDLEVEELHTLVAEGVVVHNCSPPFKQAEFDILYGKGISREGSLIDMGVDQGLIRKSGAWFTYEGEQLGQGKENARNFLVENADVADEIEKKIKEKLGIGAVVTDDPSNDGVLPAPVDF
# Mtb H37Rv: M. tuberculosis H37Rv growth inhibitors, H37Rv strain (AID 1626); one-dose inhibition, % at 10 µM; IC50 in µM for titrated hits; M. tuberculosis H37Rv growth inhibition; higher % means a stronger effect; 220,000 tested, 0.95% active;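 active means confirmed in a dose series; inconclusive means inhibition above 80% but not taken into the dose series; inactive means below 80% or under 30% at every dose of the series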;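 further: bacteria incubated seven days before Alamar blue readout; 0% = bacteria only wells and 100% = bacteria with antibiotic wells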
# Mtb bLac sens: beta-lactam sensitization of Mtb H37Rv | inhibition, % at 25 µM | M. tuberculosis H37Rv growth with meropenem, percent inhibition; hits of this screen are not shown here | 330,000 tested, 0.27% active;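 active means about 74% or more and at least 40 points above the plate without the antibiotic, then above 30% in a dose series; inconclusive means first-round hits that could not be retested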;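 further: growth measured after seven days incubation then overnight dye step; 0% = bacteria only wells and 100% = bacteria with antibiotic; twin plates without the antibiotic show which effects depend on it; some results filed as inactive read as strong as hits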
# YopH PTP inh: YopH (Yersinia) phosphatase inhibition; fluorescence Ex485/Em525; inhibition, %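 (about 10 µM by stock and volumes)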; 140,000 tested, 0.16% active; AID 898;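 active means inhibition of 50% or more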;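 further: controls were vehicle for no effect and minimum signal wells for full effect; inactives centre near -20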
# Arbovirus inh repeat: recorded beside Arbovirus inh, whose call it bears; inhibition, %; measured here: 10K subset replicate screen; many hits read low in the repeat;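 first of two repeat runs on a subset; 0% = infected and 100% = uninfected wells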
# * marks the source's active call; other numbers are inactive results; ? = inconclusive; nt = not tested or not shown; & = joins results of further samples. Some of the compounds tested; count on the stated rates, not on these rows.
SMILES,Arbovirus inh,RecA intein inh,Mtb H37Rv,Mtb bLac sens,YopH PTP inh,others
CCNS(=O)(=O)c1ccc(NC(=O)c2cncc(Br)c2)cc1,5,-4.9,-6%,1,-21,
CC1S/C(=N/N=C/c2cccc([N+](=O)[O-])c2)NC1=O (configuration not stated),nt,0.6,3%,-14,nt,
CCCCCCCC(O)CC(CC1CCCCC1)C(=O)NN (configuration not stated),-4,9.7,5%,6,-12,
O=C(c1cc2ccccc2oc1=O)N(c1ccccc1)C1C=CS(=O)(=O)C1 (configuration not stated),6,-2.0,-2%,-2,-5,
CCn1c(=O)cc(SCC(=O)Nc2cccnc2)c2ccccc21,-6,-1.8,-4%,?,-12,
Cc1cccc(-n2ncc3c2CCCC3NC(=O)Cc2c(C)noc2C)c1C (configuration not stated),nt,-5.8,nt,-7,nt,
CCOC(=O)N1CCN(c2cc(N3CCN(CC)CC3)c(F)cc2[N+](=O)[O-])CC1C (configuration not stated),-6,1.0,5%,-2,-31,
CC(=O)OC1N=C(c2ccccc2Cl)c2cc(Br)ccc2NC1=O (configuration not stated),nt,nt,12%,-7,nt,
OC1CCN(c2c3c(nc4cc(-c5cccc(F)c5)nn24)CCCC3)CC1,12,-0.1,2%,11,-31,Arbovirus inh repeat=-7
COc1nc(N2CCCC2)nc(-n2nnc(C(C)=O)c2C)n1,-1,-0.8,-9%,1,nt,
NC(=S)c1cc2ccc(O)cc2oc1=O,-8,-152,nt,nt,-26,
CCN(c1cc(C)cc(C)c1)S(=O)(=O)c1nnc(NC(=O)C(C)(C)C)s1,nt,0.3,nt,8,nt,
Cc1nn(-c2ccccc2)c2c1C(=O)NC(=O)C(C)(C)C2,6,1.4,7%,-2,-6,
COc1ccccc1Nc1nc(-c2ccc([N+](=O)[O-])cc2)nc2ccccc12,nt,-2.9,-5%,3,-17,
O=[N+]([O-])c1cccc(C=Nc2cc3c(cc2Br)OCCO3)c1,-4,nt,1%,-6,-27,
COC(=O)c1ccccc1NC(=O)NC1CCCC1,-3,-2.9,-5%,1,nt,
COc1ccc(OCC(=O)c2c[nH]c3ccccc23)cc1,3,-0.3,-2%,5,nt,
COc1ccc(CC(=O)Nc2cccc(-c3nnc(-c4ccco4)o3)c2)cc1,-4,0.0,nt,5,-51,
COc1ccc(S(=O)(=O)N(C)C)cc1NC(=O)CCNC(=O)c1ccccc1OC,nt,2.2,nt,-7,nt,
O/N=C/c1cc(Br)cs1,nt,0.4,2%,2,nt,
CC(=O)Nc1ccc(NC(=O)c2c(-c3ccccc3Cl)noc2C)cc1,nt,2.3,nt,1,nt,
FC(F)(F)c1cc(-c2ccccc2)nc(NCC2CCCO2)n1 (configuration not stated),-2,3.1,2%,3,-38,
CCn1c(SCC(=O)OC)nnc1-c1ccncc1,-1,-3.2,-9%,-4,-23,
Cc1[nH]c2ccc(C(=O)NCCCN3CCCCC3)cc2c1C,nt,-1.1,nt,-6,nt,
C=CCSc1nnc(Cc2c(C)[nH]c3ccccc23)o1,2,-1.0,6%,-1,8,Arbovirus inh repeat=0
COc1cc(C)nc(NS(=O)(=O)c2ccccc2)n1,-2,2.2,-6%,5,1,
CCCCn1c(=O)[nH]c(=O)c2c1nc(-c1ccc(OCC)cc1)n2CC,nt,-0.8,nt,-5,nt,
COCCCNC(=O)C1CCCN(C(=O)Nc2ccc(OC)cc2)C1 (configuration not stated),-1,1.7,-1%,-3,53*,
CCc1cccc2c(C(=O)C(F)(F)F)cn(CC(=O)NCC3CCCO3)c12 (configuration not stated),6,nt,5%,-2,nt,
CC(C)C(C(=O)Nc1cccnc1)N1C(=O)c2ccccc2C1=O (configuration not stated),0,-4.1,-3%,0,20,
CC(=O)Nc1cccc(NC(=O)CSc2nc3c(=O)n(C)c(=O)n(C)c3n2C)c1,nt,-0.9,nt,-4,nt,
C/C(=N\Nc1nc(N2CCCCC2)nc(N2CCOCC2)n1)c1cccs1,-3,-3.1,5%,8,nt,
COc1cc(O)c(CCO)c2c1C(=O)C[C@@H](C)O2,5,-1.6,-4%,3,nt,
Cc1csc(=Nc2ccc(S(=O)(=O)N3CCOCC3)cc2)n1Cc1ccco1,11,6.6,2%,2,-28,
CN(C)CC#Cc1cncc(C(=O)NNC(=O)Nc2ccc(Cl)cc2)c1,nt,6.6,-6%,-2,nt,
COc1ccc(N2CCN(C(=O)Cn3cnc4c(cnn4-c4ccc(C)cc4)c3=O)CC2)cc1,-1,-0.5,9%,10,nt,

# Reprinted from the part before: two compounds; new compounds follow.
SMILES,Arbovirus inh,RecA intein inh,Mtb H37Rv,Mtb bLac sens,YopH PTP inh,others
CN(C)CC#Cc1cncc(C(=O)NNC(=O)Nc2ccc(Cl)cc2)c1,nt,6.6,-6%,-2,nt,
COc1ccc(N2CCN(C(=O)Cn3cnc4c(cnn4-c4ccc(C)cc4)c3=O)CC2)cc1,-1,-0.5,9%,10,nt,
O=C(c1cccc(OC(F)F)c1)N1CCN(c2ncccn2)CC1,1,-1.1,-7%,1,-39,
CCOC(=O)C(C)(C)N(Cc1ccccc1C)S(=O)(=O)c1ccc(Cl)c([N+](=O)[O-])c1,3,2.7,3%,-2,-22,
CCN(CC(=O)NCc1cccs1)C(=O)c1ccc(NS(=O)(=O)c2cccc([N+](=O)[O-])c2)cc1,nt,-0.6,nt,-8,nt,
O=C(COC(=O)c1nsc(Cl)c1Cl)NC1CCCC1,nt,1.9,nt,0,nt,
C#CCOc1c(Cl)cc(C2C3=C(CCCC3=O)N(CC(=O)O)C3=C2C(=O)CCC3)cc1OC,nt,-220,nt,2,nt,
CCOC(=O)c1c(S(=O)(=O)N2CCCC2)c(C)n(C)c1C,nt,-2.3,nt,4,nt,
CC(C)(C)c1ccc(C(CC(=O)O)NC(=O)CSc2ccccc2)cc1 (configuration not stated),7,-0.9,-10%,-11,nt,
CCOC(=O)c1nn(-c2ccc(F)cc2)c(=O)cc1OCC(=O)Nc1ccc(OCC)cc1,nt,-2.1,nt,8,nt,
COc1ccc(Nc2nc(-c3ccccc3)c3ccccc3n2)cc1,7,-4.2,21%,62,-5,
O=C(CCCCCNC(=O)N1CCn2c1nc1ccccc12)N[C@@H](C(=O)O)c1ccccc1,nt,0.2,nt,-4,nt,
Cc1cc(NC(=O)CSc2nnnn2-c2ccc(C)c(C)c2)no1,7,-2.2,-5%,-2,nt,
O=C(Cc1ccccc1)NCCC1=CCCCC1,1,nt,3%,-2,-43,
O=C(COc1ccc(/C=N/NC(=O)c2ccccc2O)cc1)Nc1ccc([N+](=O)[O-])cc1,12,1.4,-4%,11,-20,
CC(=O)c1cc(C#N)c(SCC(=O)OC(C)(C)C)nc1C,-5,1.0,2%,37,2,
CCN(CC(=O)Nc1c(F)cccc1F)C(=O)/C=C/c1ccc(S(=O)(=O)N2CCCCCC2)cc1,nt,1.2,nt,-13,nt,
Cc1ccc(-n2nc3cc(C)c(NC(=O)c4cccnc4)cc3n2)cc1,-11,0.7,-4%,-1,-24,
COc1ccc(/C=C(/C#N)c2cccnc2)cc1OC,22,-0.1,-9%,-2,-23,
O=S(=O)(Nc1ccon1)c1ccc(Br)cc1,nt,-4.6,nt,-5,nt,
Cc1nc2c(-c3ccc(F)cc3)c(C)nn2c(C)c1CCC(=O)NCc1ccco1,-4,-4.4,1%,5,-29,
Cc1ccc2cc(C(c3nnnn3C3CCCC3)N3CCN(c4ccccc4)CC3)c(=O)[nH]c2c1 (configuration not stated),-3,-2.4,3%,59,4,
C=CCNC(=S)Nc1cccc(NC(=S)NCC=C)c1,-8,-1.0,1%,-4,-27,
COc1ccc(-n2cnnc2SCC(=O)Nc2ccc(C(N)=O)cc2)cc1,nt,0.3,nt,-1,nt,
O=c1[nH][nH]c(-c2ccccc2O)c1C(C[N+](=O)[O-])c1ccc(Br)cc1 (configuration not stated),-30,14,11µM*,100,-29,
O=[N+]([O-])c1ccc(N/N=C/c2cn(Cc3ccc(F)cc3)c3ccccc23)nc1,-23,1.1,7%,11,-9,
Cc1ccccc1OCC(=O)Nc1nnc(C2CCCCC2)s1,nt,0.2,-2%,2,nt,
COc1ccc(NS(=O)(=O)c2cccc(C(=O)N(C)Cc3cccs3)c2)cc1,nt,-0.4,nt,-9,nt,
COC(=O)c1ccc(COc2cccc3c2CCN(Cc2cccc(C)c2)C3=O)o1,-3,10,nt,2,-16,
Cc1ccc(/C=N\NC(=O)c2cc([N+](=O)[O-])cc([N+](=O)[O-])c2)o1,5,1.0,?,-10,-20,
Cc1csc(NC(C)c2nc3cc(Cl)c(N4CCCCC4)cc3n2CCOCCO)n1 (configuration not stated),nt,2.2,9%,-6,nt,
O=C1CC[C@@H](C(=O)N2CSC[C@H]2C(=O)O)N1,0,-3.6,-1%&2%,-3,nt,
COc1ccc(CC(=O)Nc2c3c(nn2-c2cccc(C)c2C)CS(=O)(=O)C3)cc1,1,nt,2%,0,-44,
CCc1ccc(C(=O)N2CCCC2)s1,-3,-3.7,-10%,0,-45,
Cc1ncn(-c2ccccc2)c1-c1ccccc1,nt,1.8,nt,71,nt,
COc1ccc(NC(=O)c2ccc(NC(=O)CN(C)CC(=O)Nc3c(C)cccc3C)cc2)cc1,nt,-0.8,11%,36,nt,
CC1(C)CC(=O)N(c2ccc(Cl)cc2Cl)C(=O)C1,nt,4.6,nt,-16,nt,
CC(=O)Nc1cccc(-n2c(=O)n(Cc3ccccc3)c(=O)c3[nH]cnc32)c1,nt,-2.5,nt,-12,nt,
CCOc1cccc(C(=O)Nc2ccc3ccccc3c2)c1,nt,0.5,nt,0,nt,

# By substructure: the entries above with an aryl methoxy group (16)
SMILES,Arbovirus inh,RecA intein inh,Mtb H37Rv,Mtb bLac sens,YopH PTP inh,others
COc1nc(N2CCCC2)nc(-n2nnc(C(C)=O)c2C)n1,-1,-0.8,-9%,1,nt,
COc1ccccc1Nc1nc(-c2ccc([N+](=O)[O-])cc2)nc2ccccc12,nt,-2.9,-5%,3,-17,
COc1ccc(OCC(=O)c2c[nH]c3ccccc23)cc1,3,-0.3,-2%,5,nt,
COc1ccc(CC(=O)Nc2cccc(-c3nnc(-c4ccco4)o3)c2)cc1,-4,0.0,nt,5,-51,
COc1ccc(S(=O)(=O)N(C)C)cc1NC(=O)CCNC(=O)c1ccccc1OC,nt,2.2,nt,-7,nt,
COc1cc(C)nc(NS(=O)(=O)c2ccccc2)n1,-2,2.2,-6%,5,1,
COCCCNC(=O)C1CCCN(C(=O)Nc2ccc(OC)cc2)C1 (configuration not stated),-1,1.7,-1%,-3,53*,
COc1cc(O)c(CCO)c2c1C(=O)C[C@@H](C)O2,5,-1.6,-4%,3,nt,
COc1ccc(N2CCN(C(=O)Cn3cnc4c(cnn4-c4ccc(C)cc4)c3=O)CC2)cc1,-1,-0.5,9%,10,nt,
C#CCOc1c(Cl)cc(C2C3=C(CCCC3=O)N(CC(=O)O)C3=C2C(=O)CCC3)cc1OC,nt,-220,nt,2,nt,
COc1ccc(Nc2nc(-c3ccccc3)c3ccccc3n2)cc1,7,-4.2,21%,62,-5,
COc1ccc(/C=C(/C#N)c2cccnc2)cc1OC,22,-0.1,-9%,-2,-23,
COc1ccc(-n2cnnc2SCC(=O)Nc2ccc(C(N)=O)cc2)cc1,nt,0.3,nt,-1,nt,
COc1ccc(NS(=O)(=O)c2cccc(C(=O)N(C)Cc3cccs3)c2)cc1,nt,-0.4,nt,-9,nt,
COc1ccc(CC(=O)Nc2c3c(nn2-c2cccc(C)c2C)CS(=O)(=O)C3)cc1,1,nt,2%,0,-44,
COc1ccc(NC(=O)c2ccc(NC(=O)CN(C)CC(=O)Nc3c(C)cccc3C)cc2)cc1,nt,-0.8,11%,36,nt,
